Screens as filed in PubChem BioAssay.
INS promoter inh – inhibitors of insulin promoter-driven GFP, primary screen, imaging, TRM-6 cells (human fetal islet line), eGFP reporter, cell count; inhibition, % at 2 µM; 0.9% of 130,000 active; reporter expression induced with tamoxifen;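 active = inhibition above the mean plus 3 SD, with well images judged a real hit on visual review, cut at about 60% in these data, passing the limit was not always enough; inconclusive = inhibition over the cutoff but images rejected on review; inactive = inhibition not above the cutoff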
PKD1 kinase inh – inhibitors of human PKD1 kinase, biochemical, fluorescence polarization; Serine/threonine-protein kinase D1 (Homo sapiens), Q15139; PKD1 kinase fluorescence polarization assay; inhibition, %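 (about 10 µM by stock and volumes)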; 0.056% of 200,000 active;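 active = inhibition of 50% or more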;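 also: controls were vehicle for no effect and a reference inhibitor for full effect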
RGS16-Gao HTS – modulators of RGS16 binding to Galphao, primary screen, biochemical, human proteins, multiplexed bead flow cytometry | 0.38% of 220,000 active | Regulator of G-protein signaling 16 (Homo sapiens) + Guanine nucleotide-binding protein … | binding response (% of control), % at 10 µM | AID 1441, 2008 | bead-based flow cytometry RGS16-Galphao binding, fluorescence; actives lie on both sides;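 active = below 25% or above 175%, edge rows of some plates excepted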;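 also: Galphao activated by GDP with aluminum fluoride before binding; 100% = wells without compound and 0% = beads without RGS; some results beyond the cut were filed as inactive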
Target sequence (O15492 whole entry, looked up): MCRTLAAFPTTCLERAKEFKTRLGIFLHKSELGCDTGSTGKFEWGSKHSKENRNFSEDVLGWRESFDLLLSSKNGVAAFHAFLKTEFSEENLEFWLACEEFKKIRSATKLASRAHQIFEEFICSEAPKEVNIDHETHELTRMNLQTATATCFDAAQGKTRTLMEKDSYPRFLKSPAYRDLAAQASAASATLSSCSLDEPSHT
Target sequence (P09471 whole entry, looked up): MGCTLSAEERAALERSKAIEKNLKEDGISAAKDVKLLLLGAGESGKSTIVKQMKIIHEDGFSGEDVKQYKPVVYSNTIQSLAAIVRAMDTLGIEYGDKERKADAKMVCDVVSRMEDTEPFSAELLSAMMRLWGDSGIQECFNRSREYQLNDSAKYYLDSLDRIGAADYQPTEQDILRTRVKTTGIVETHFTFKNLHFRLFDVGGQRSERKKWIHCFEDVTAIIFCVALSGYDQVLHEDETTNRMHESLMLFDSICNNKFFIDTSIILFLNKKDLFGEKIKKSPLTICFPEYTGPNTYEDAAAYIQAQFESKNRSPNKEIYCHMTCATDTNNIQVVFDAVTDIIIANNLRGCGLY
HSV augment – enhancers of HSV replication in host cells, fold increase, host cell viability; 0.005% of 220,000 active; maximum fold increase; HSV replication augmentation in cells;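 active = peak rise of 1.5-fold or more in the series; inconclusive = self-fluorescent or not available for retest; tested in PC3 cells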;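 also: first round at 10 µM; read as green reporter fluorescence; hits show the peak of a series up to 25 µM; 1 = signal of infected wells without compound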
GALR2 agonist – GALR2 receptor agonists, primary screen, cell-based; GALR2-expressing cells, agonist activation read-out; Galanin receptor type 2 (Homo sapiens), O43603; 0.48% of 140,000 active; activation, %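 (tested at 5 µM)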;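 active = above mean plus 3 SD of all compounds, about 5% in these data, not always enough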;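 also: 0% = vehicle buffer wells and 100% = reference agonist at full effect; tested in CHO reporter cells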
Target sequence (O43603 whole entry, looked up): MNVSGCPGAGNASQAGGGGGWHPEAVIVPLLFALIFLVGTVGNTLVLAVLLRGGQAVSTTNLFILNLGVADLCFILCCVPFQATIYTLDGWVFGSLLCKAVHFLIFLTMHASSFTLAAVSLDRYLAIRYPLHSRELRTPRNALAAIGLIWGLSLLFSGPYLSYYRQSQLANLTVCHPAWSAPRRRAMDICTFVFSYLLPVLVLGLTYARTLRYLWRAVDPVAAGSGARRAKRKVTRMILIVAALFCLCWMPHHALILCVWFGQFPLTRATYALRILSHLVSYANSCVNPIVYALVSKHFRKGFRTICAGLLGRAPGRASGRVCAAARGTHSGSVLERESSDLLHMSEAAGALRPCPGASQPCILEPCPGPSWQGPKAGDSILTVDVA
INS promoter inh cell count – further read-out of INS promoter inh, marked with its call; normalized cell count, %; measured here: cell count, toxicity; reference of the scale not given here;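 cells exposed to compound for 48 h; stained nuclei by imaging scaled within each plate; lower means fewer cells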
HSV augment primary fold – second read-out of HSV augment, no call of its own (marks repeat the call); fold increase; compound at 10 µM; measured here: primary screen fold increase 10 uM; tested in PC3 cells;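 GFP signal in the first replicate; 1 = infected wells without compound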
* = called active by the depositor; i = inactive; ? = inconclusive; nt = not tested or not shown. Not all compounds are listed; the hit share may differ from the screen's.

Results follow in this order: INS promoter inh | INS promoter inh cell count | PKD1 kinase inh | RGS16-Gao HTS | HSV augment | HSV augment primary fold | GALR2 agonist
COc1cc(-n2c(=S)[nH]c3ccccc3c2=O)c(Cl)cc1Cl
    18 | 95 | 10 | 97 | i | 0.92 | -0.8
CN1/C(=C\C=Nc2ccccc2)C(C)(C)c2ccccc21
    nt | nt | 0 | 103 | i | 1.2 | -1.8
Cc1ccc(C2(O)CC(C)N(C)CC2C)cc1 (stereo not drawn)
    -15 | 113 | -9 | 172 | i | 0.97 | -1.0
O=C(CN1CC=C(c2ccccc2)CC1)NC(=O)NCc1ccco1
    10 | 153 | -3 | 93 | i | 0.88 | -1.9
CCOc1ccc(CC2(CCc3ccncc3)C(=O)NC(=O)NC2=O)cc1
    nt | nt | -1 | 108 | i | 0.9 | nt
CC(C(=O)c1ccc2ccccc2c1)N1CCCCC1 (stereo not drawn)
    -19 | 52 | -1 | 98 | i | 0.99 | nt
Cc1ccc(C(C)C)c(OCC(=O)N2CCN(Cc3nc4cc([N+](=O)[O-])ccc4n3C)CC2)c1
    -50 | 34 | -1 | 139 | i | 0.88 | 0.3
Cc1cccc(CN2CCCC(C(=O)c3cccc(OC(C)C)c3)C2)n1 (stereo not drawn)
    -22 | 60 | -3 | 94 | i | 0.92 | nt
Cc1ccc(-n2c(/C=C/c3ccc4c(c3)OCO4)nc3ccccc3c2=O)cc1
    -3 | 84 | 13 | 111 | i | 1.1 | -0.1
N#Cc1ccc(OCC(=O)N2CCN(Cc3ccc4c(c3)OCO4)CC2)cc1
    0 | 136 | -2 | 98 | i | 0.96 | nt
CCOc1c(Cl)cc(CNCCc2c[nH]c3ccccc23)cc1OC
    nt | nt | -5 | 120 | i | 1.1 | nt
CCc1ccc(N2C(=O)NC(=O)/C(=C\c3cccn3CCOc3ccc(C(C)C)cc3)C2=O)cc1
    11 | 84 | -15 | 104 | i | 0.94 | -0.2
Cn1c(O)c(C=NCCCNC2CCCCC2)c(=O)n(C)c1=O
    3 | 248 | -9 | 99 | i | 0.91 | -0.8
CCC1(C(=O)c2ccc(C)cc2)C2c3ccccc3OC(=O)C21C(=O)O (stereo not drawn)
    nt | nt | nt | 92 | i | 0.93 | nt
CCOc1cccc(=NC2CCCCC2)c2c(C)n(C)c(C)c12
    nt | nt | nt | 106 | i | 1 | nt
Cc1nc2cc(C(F)(F)F)ccc2n1C1CCN(Cc2nnnn2Cc2ccc3c(c2)OCO3)CC1
    nt | nt | 8 | 89 | i | 0.72 | 1.9
COc1cc(C2NCc3ccccc3-n3cccc32)ccc1O (stereo not drawn)
    23 | 87 | 2 | 96 | i | 0.96 | -0.9
Fc1ccc(C2NCCc3[nH]cnc32)cc1 (stereo not drawn)
    nt | nt | -7 | 103 | i | 0.88 | 0.7
CN1CCN(c2nc(N)cc(=O)[nH]2)CC1
    nt | nt | nt | 100 | i | 1.2 | nt
CC(=NCc1cccnc1)c1c(O)n(-c2ccccc2C)c(=O)[nH]c1=O
    41 | 81 | -3 | 94 | i | 0.95 | -0.5

(more compounds)
Results follow in this order: INS promoter inh | INS promoter inh cell count | PKD1 kinase inh | RGS16-Gao HTS | HSV augment | HSV augment primary fold | GALR2 agonist
CCOc1ccc(C2SCC(=O)Nc3c2c(C)nn3C2CCOC(C)(C)C2)cc1 (stereo not drawn)
    29 | 112 | -1 | 106 | i | 0.56 | -1.3
CCOP(=O)(OCC)C(NC(=O)Cc1ccccc1)C(Cl)(Cl)Cl (stereo not drawn)
    6 | 115 | -8 | 94 | i | 0.93 | nt
CC1=NN(c2ccccc2)C(=O)C1/C=C1/C(=O)NC(=O)N(c2cccc(C)c2)C1=O (stereo not drawn)
    -14 | 47 | -8 | 104 | i | 1 | -1.0
CCCCCCNc1nc(OC)nc(N2CC3CC(C2)c2cccc(=O)n2C3)n1 (stereo not drawn)
    -17 | 62 | -3 | 113 | i | 0.95 | nt
COC(=O)[C@]1(C)C[C@H]1[C@H](NP(=O)(c1ccccc1)c1ccccc1)c1ccccc1
    -25 | 106 | 7 | 68 | i | 0.85 | -2.3
O=c1[nH]c(=O)n(-c2cccc3ccccc23)c(O)c1/C=N/N1CCCCC1c1cccnc1 (stereo not drawn)
    -13 | 143 | 4 | 106 | i | 1.2 | -1.0
O=C(c1cn(Cc2ccccc2)c2ccccc12)C1CC1
    0 | 87 | 4 | 103 | i | 0.97 | nt
Cc1ccc(C)c(NC2=NCCCS2)c1
    -30 | 183 | 2 | 100 | i | 0.97 | -1.0
CCOP(=O)(OCC)C(NC(=O)c1ccccc1)C(Cl)(Cl)Cl (stereo not drawn)
    nt | nt | -1 | 104 | i | 0.83 | 0.1
N#Cc1c(N2CCNCC2)nc(-c2ccco2)c2c1CCCC2
    nt | nt | nt | 106 | i | 0.89 | nt
CSc1ncc(CN2CCCC(C(=O)c3ccccc3SC)C2)cn1 (stereo not drawn)
    nt | nt | nt | 100 | i | 0.97 | nt
N/C(=N\[N+](=O)[O-])N1CCN(C(=O)c2ccccc2)CC1
    nt | nt | -8 | 104 | i | 0.98 | nt
Clc1ccc(OCC#CCN2CCCC2)cc1
    nt | nt | -2 | 103 | i | 0.97 | nt
COc1ccccc1-n1c(O)c(C=NCCN2CCNCC2)c(=O)[nH]c1=O
    8 | 60 | 2 | 105 | i | 0.94 | -0.3
Cc1ccc2c(c1)C1CN(C)CCC1N2C(=O)Nc1cccc(Cl)c1 (stereo not drawn)
    35 | 80 | -1 | 102 | i | 0.86 | -2.8
COc1ccc(CN2CCN(C(=O)COc3cccc(C)c3)CC2)c(OC)c1
    nt | nt | -13 | 91 | i | 0.98 | -0.5
O=C(c1ccccc1)C(CN1CCCC1)c1ccccc1 (stereo not drawn)
    -42 | 21 | 2 | 91 | nt | nt | 0.8
COc1ccc(OCC(=O)N2CCN(Cc3ccc4c(c3)OCO4)CC2)cc1
    nt | nt | 1 | 101 | i | 1.1 | nt
COc1ccc(CCn2c(O)c(C=NCCCn3ccnc3)c(=O)[nH]c2=O)cc1OC
    36 | 144 | 3 | 113 | i | 0.95 | -3.2
Cc1ccc2nc(N3CCN(C)CC3)[nH]c2c1
    -34 | 166 | -13 | 101 | i | 0.93 | -0.6

(cont.)
Structure | INS promoter inh | INS promoter inh cell count | PKD1 kinase inh | RGS16-Gao HTS | HSV augment | HSV augment primary fold | GALR2 agonist
Cc1ccc(C(O)(C(=O)NNC(=O)CN2CCN(C)CC2)c2ccc(C)cc2)cc1 | 10 | 85 | 3 | 100 | i | 0.89 | -0.7
CC(C)(C)NC(=O)NC(=O)CN1CC=C(c2ccccc2)CC1 | nt | nt | 1 | 110 | i | 1 | nt
CCOC(=O)C(O)(c1ccc(N=Cc2ccccc2O)c(C)c1)C(F)(F)F (stereo not drawn) | -57 | 101 | 13 | 48 | i | 0.91 | -1.5
CCC(=NCCCN1CCOCC1)c1c(O)n(-c2ccccc2C)c(=O)[nH]c1=O | nt | nt | nt | 105 | i | 1.1 | nt
Oc1ccc(CC2CC3CCN2CC3)cc1O (stereo not drawn) | nt | nt | -12 | 95 | i | 0.98 | -1.2
COc1ccc(/C=N\N=C(N)N)cc1 | nt | nt | -6 | 102 | i | 0.86 | nt
COC(=O)C1C=C2c3cccc4[nH]cc(c34)CC2N(C)C1 (stereo not drawn) | nt | nt | nt | 92 | ? | nt | nt
CC(=O)Nc1nc(CCl)cs1 | nt | nt | -3 | 97 | i | 0.97 | nt
CCCNC(=O)N1CCC2(CC1)OCCO2 | nt | nt | 8 | 106 | i | 0.91 | nt
COC1C(OC(=O)c2ccc(C)[nH]2)C(O)C(Oc2ccc3c(O)c(NC(=O)c4ccc(O)c(CC=C(C)C)c4)c(=O)oc3c2Cl)OC1(C)C (stereo not drawn) | nt | nt | nt | 100 | i | 0.93 | nt
O=C1OC(c2ccc([N+](=O)[O-])cc2)=N/C1=C/N1CC2CC(C1)c1cccc(=O)n1C2 (stereo not drawn) | nt | nt | nt | 95 | ? | nt | nt
COc1ccc(C2NCc3ccc4c(c3-n3cccc32)OCO4)cc1O (stereo not drawn) | -49 | 13 | 8 | 99 | i | 0.41 | -1.3
O=C(C[N+]12CCC(CC1)C(OC(=O)c1ccccc1)C2)c1ccc([N+](=O)[O-])cc1 (stereo not drawn) | nt | nt | nt | 104 | i | 0.96 | nt
CCCCCCn1c(O)c(C=NC2CCN(Cc3ccccc3)CC2)c(=O)[nH]c1=O | 26 | 124 | 7 | 107 | i | 0.97 | -0.7
CN1CCc2nc(SCc3cccc(Br)c3)c(C#N)cc2C1 | nt | nt | nt | 98 | i | 0.99 | nt
CCOP(=O)(OCC)C(NC(=O)c1ccc(C)cc1)=C(Cl)Cl | -30 | 73 | -18 | 160 | i | 1 | -0.8
O=C(c1ccc2c(c1)ncn2C1CCCCC1)N1CCC2(CC1)OCCO2 | 23 | 121 | 2 | 76 | i | 0.67 | -0.6
O=c1[nH]c(=S)n(-c2ccccc2F)c(O)c1C=Nc1ccc(N2CCOCC2)cc1 | 29 | 76 | -1 | 102 | i | 0.92 | nt
CC12CCCCC1=[N+]([O-])CN2O (stereo not drawn) | -17 | 81 | -1 | 84 | i | 0.97 | -1.2
Fc1ccc(CNCCc2ccccc2F)cc1 | 25 | 130 | -13 | 96 | i | 0.91 | -1.8

Exported field by field: part of the list above.
CN1CCc2nc(SCc3cccc(Br)c3)c(C#N)cc2C1
  INS promoter inh = nt
  INS promoter inh cell count = nt
  PKD1 kinase inh = nt
  RGS16-Gao HTS = 98
  HSV augment = i
  HSV augment primary fold = 0.99
  GALR2 agonist = nt
COC1C(OC(=O)c2ccc(C)[nH]2)C(O)C(Oc2ccc3c(O)c(NC(=O)c4ccc(O)c(CC=C(C)C)c4)c(=O)oc3c2Cl)OC1(C)C (stereo not drawn)
  INS promoter inh = nt
  INS promoter inh cell count = nt
  PKD1 kinase inh = nt
  RGS16-Gao HTS = 100
  HSV augment = i
  HSV augment primary fold = 0.93
  GALR2 agonist = nt

In the list so far, 2 contain an aryl thioether with sulfur outside any ring:
Structure | INS promoter inh | INS promoter inh cell count | PKD1 kinase inh | RGS16-Gao HTS | HSV augment | HSV augment primary fold | GALR2 agonist
CSc1ncc(CN2CCCC(C(=O)c3ccccc3SC)C2)cn1 (stereo not drawn) | nt | nt | nt | 100 | i | 0.97 | nt
CN1CCc2nc(SCc3cccc(Br)c3)c(C#N)cc2C1 | nt | nt | nt | 98 | i | 0.99 | nt

New compounds follow.
Structure | INS promoter inh | INS promoter inh cell count | PKD1 kinase inh | RGS16-Gao HTS | HSV augment | HSV augment primary fold | GALR2 agonist
Cc1ccc(N2C(=O)/C(=C/N3CCN(C(=O)c4ccco4)CC3)C(=O)NC2=S)cc1C | nt | nt | -8 | 88 | i | 1.2 | -1.0
Cn1c(O)c(C=Nc2ccccc2Sc2ccccc2)c(=O)n(C)c1=O | 18 | 88 | -9 | 81 | i | 1.1 | -0.5
C=CCn1c(O)c(C(C)=NCc2ccc3c(c2)OCO3)c(=O)[nH]c1=O | nt | nt | nt | 96 | i | 1 | nt
O=C1CC(N2CC=C(c3ccc(F)cc3)CC2)C(=O)N1c1ccc(F)cc1 (stereo not drawn) | -8 | 98 | -6 | 103 | i | 1 | -0.5
CSc1ccc(C(c2c(O)c3ccccc3oc2=O)c2c(C)n(C)n(-c3ccccc3)c2=O)cc1 (stereo not drawn) | nt | nt | 1 | 98 | i | 0.89 | nt
O=c1[nH]c(O)c(N=Nc2cc([N+](=O)[O-])ccc2O)c(=O)[nH]1 | nt | nt | -4 | 97 | i | 1.2 | nt
CN(C)C(Cc1ccccc1)C(=O)c1cccs1 (stereo not drawn) | nt | nt | -13 | 100 | i | 1 | nt
COc1ccccc1N1C(=O)NC(=O)/C(=C/c2ccc3c4c(cccc24)CC3)C1=O | nt | nt | 2 | 103 | nt | nt | -1.1
C=CCn1c(O)c(C(C)=NCCN2CCOCC2)c(=O)[nH]c1=O | -38 | 50 | 2 | 106 | i | 0.85 | 1.1
CCOP(=O)(OCC)C(O)c1cccnc1 (stereo not drawn) | nt | nt | nt | 113 | i | 0.89 | nt
